Source: PubChem (several laboratories)
VCAM-1 rise – enhancers of VCAM-1 display on endothelial cells, cell-based, plate reader, pooled HUVEC, TNFa stimulus (AID 455) | HUVEC TNFa-induced VCAM-1 immunofluorescence, plate reader; numbers were filed only for top-ranked candidate wells | augmentation, % at 5 µM | 0.2% of 10,000 active;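 active = a compound raising TNF-alpha-driven VCAM-1 surface staining, with its hit status upheld on visual or statistical review; inactive = the rest, including hits rejected on review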;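 also: 0% = TNFa with vehicle and 100% = strongest image-checked hit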
26S disassembly – blocks ATP-dependent breakdown of the yeast 26S proteasome; anti-FLAG beads, GFP-proteasome disassembly, flow cytometry; inhibition of disassembly, % (concentration not given with the values); 0.2% of 24,000 active; AID 751;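 active = above 40%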;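 also: plate controls were ATP control with full disassembly for no effect and ATP-gamma-S intact proteasomes for full effect; higher percent means more bead fluorescence retained so stronger block of disassembly; stock transfer was 100 nL into about 10 µL; wells with too few beads may also be inconclusive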
Active calls of the source: *; i = inactive; / = not tested or not shown.

molecule	VCAM-1 rise	26S disassembly
CCOC(=O)C1CCCN(c2c(NCCCN3CCCC(C)C3)c(=O)c2=O)C1 (stereo not given)	/	0.1
Cc1ccccc1-n1c(Cn2c(=O)sc3ccccc32)nnc1SCC(=O)Nc1nccs1	/	1.0
CCOc1ccc2c(c1)sc1nc(C(=O)OC)cc(=O)n12	i	0.1
CN(C1CCCCC1)S(=O)(=O)c1ccc(S(=O)(=O)N2CCCC2)cc1	i	1.6
O=C(Cn1cnc2c(cnn2-c2ccc(F)cc2)c1=O)OCc1ccccc1	/	-0.7
CC(=O)Nc1ccc(S(=O)(=O)Nc2nc3n(n2)C(c2ccccc2)CC(=O)N3)cc1 (stereo not given)	i	-1.7
O=C1CC(c2ccccc2)CC(O)=C1C=NCCCN1CCOCC1 (stereo not given)	i	-2.3
CCOC(=O)C1CCN(C(=O)C2CCN(S(=O)(=O)c3c(C)noc3C)CC2)CC1	/	-1.3
CC(=O)OCC1=C(C(=O)O)N2C(=O)[C@@H](NC(=O)Cc3cccs3)[C@H]2SC1	i	0.5
COc1cccc(C(CC(=O)NCCN2CCOCC2)NS(=O)(=O)c2ccc(C)cc2)c1OC (stereo not given)	/	-0.7
COc1cccc(Oc2cn[nH]c2-c2ccc(O)cc2O)c1	i	2.5
CCCCn1c(SCC(=O)N2CC(=O)Nc3ccccc32)nnc1-c1ccoc1C	i	2.0
COCCCn1c2nc3ccccc3nc2c2c(=O)n(-c3ccccc3OC)cnc21	i	0.3
O=C(CN1C(=O)CCSc2ccccc21)Nc1ccccc1	i	0.9
CCN1CCN(c2ncnc3c2oc2nc(C)c4c(c23)CC(C)(C)OC4)CC1	i	2.4
COC(=O)c1oc2ccc(Br)cc2c1NC(=O)CN1CCN(C)CC1	i	-0.3
Cc1nc2c(-c3ccccc3)c(C)nn2c(C)c1CC(=O)O	/	-0.4
CC1(C)CC(=O)N(CC(=O)NCc2ccccc2)c2ccccc2S1(=O)=O	i	-0.1
O=C(CN1C(=O)c2cccc3cccc1c23)NCC1CCCO1 (stereo not given)	i	3.3
CCOc1cc(-c2ccccc2)nc(N)n1	/	0.0
Cc1cc(=O)n2nc(N3CCC(C(=O)N4CCN(Cc5ccccc5)CC4)CC3)sc2n1	i	39.7
CCOC(=O)Nc1ccccc1N1C(=O)c2ccccc2C1=O	/	-0.7
Cc1ccccc1-c1nc(CS(=O)(=O)CC(=O)N(C)C2CCCCC2)c(C)o1	i	-0.2
CCOC(=O)C1CCCN(c2c(NCc3ccco3)c(=O)c2=O)C1 (stereo not given)	i	1.0
CC(C)c1cc(C(=O)NCc2ccco2)no1	i	1.3
O=C(c1ccco1)N1CCN(CC2CC3C=CC2C3)CC1 (stereo not given)	i	0.4
O=C(O)CCSCc1ccccc1F	/	0.1
CC(=O)N1CCC(=O)N(C(C)C)c2ccccc21	/	0.5
CCOC(=O)C(CC)Sc1ncnc2nc[nH]c12 (stereo not given)	i	-1.2
COc1cc(C(=O)Nc2ccc(-n3cnnn3)c(C)c2)cc(OC)c1OC	i	-0.8

Following part:
molecule	VCAM-1 rise	26S disassembly
O=C(CCSCCc1ccccn1)Nc1ccccn1	/	-0.1
CCOC(=O)c1ccc(NC(=O)Nc2ccc3c4c(cccc24)C(=O)N3CC)cc1	/	1.1
O=C(Nc1ccc(F)cc1)c1oc2ccccc2c1NC(=O)C1CCCC1	/	-0.6
Cc1ccc(N2C(=O)c3oc4ccccc4c(=O)c3C2c2cccnc2)nc1 (stereo not given)	/	2.1
Oc1ccccc1Oc1ncc(Br)c(N2CCOCC2)n1	/	-0.8
CCc1nnc(NC(=O)CSc2nnc(-c3ccccc3OC)n2-c2ccccc2)s1	i	0.9
CC(=O)Nc1cc(C(=O)N2CCOCC2)ccc1S(=O)(=O)c1ccc(C)cc1	/	-0.3
OCCN1CCN(c2ncnc3ccc(Br)cc23)CC1	/	-1.1
COCCNC(=O)CN1C(=O)COc2ccc(Cl)cc21	/	2.9
CCOc1ccc(NC(=O)N2CC=C(n3c(=O)[nH]c4ccccc43)CC2)cc1	/	0.2
O=C(CN1CCOc2ccccc21)NCc1ccco1	/	-1.9
O=C(CN1C(=O)COc2ccccc21)N1CCN(c2ccccc2F)CC1	/	0.7
COCCn1c(=O)[nH]c2cc(C(=O)NCC3CCCO3)ccc2c1=O (stereo not given)	/	4.0
Cc1onc(-c2c(F)cccc2Cl)c1C(=O)Nc1nnc(C2CC2)s1	/	-0.1
CCOC(=O)CSc1n[nH]c(-c2ccco2)n1	/	1.3
O=C(NCc1ccccc1Cl)C1CCCN(S(=O)(=O)c2cnc[nH]2)C1 (stereo not given)	/	-3.5
Cc1nnc(NC(=O)Nc2cccc(Cl)c2)s1	i	0.4
COC(=O)c1cn(C(=O)OC)c2ccccc12	i	-2.3
Cc1nn(C(=O)c2cccnc2)c(C)c1C	/	-2.3
COc1ccc(-n2c(Cc3cc(=O)[nH]c(=O)[nH]3)nnc2SCc2ccccc2)cc1	/	0.5
Cc1sc(NC(=O)c2ccco2)c(C(c2ccncc2)N2CCOCC2)c1C (stereo not given)	/	3.7
COC(=O)c1sc(NC(=O)c2ccoc2C)nc1C	i	-4.0
COc1ccc(OCC(O)Cn2c(Br)nc3c2c(=O)[nH]c(=O)n3C)cc1 (stereo not given)	i	0.7
Cc1ccc2c(c1)N(CCCC(=O)NCc1cccnc1)C(=O)CO2	/	-1.7
O=C(CCCN1C(=O)CSc2ncccc21)N1CCN(Cc2ccccc2)CC1	/	-2.2
CCOc1ccc(C2CC(c3ccc(OC)c(OC)c3)n3nc(N)nc3N2)cc1 (stereo not given)	/	-0.6
Cc1ccc(S(=O)(=O)NC(C(=O)OCC(=O)NC2CCS(=O)(=O)C2)C(C)C)cc1 (stereo not given)	i	-3.7
CCOC(=O)C1CCN(C(=O)c2oc3ccc(S(=O)(=O)N4CCCCCC4)cc3c2C)CC1	/	0.9
COc1ccc(OC)c(S(=O)(=O)n2nnc3cc(Cl)ccc32)c1	/	-0.8
COc1ccc(-n2c(SCC(=O)Nc3ccc(C(=O)O)cc3)nnc2-c2cccs2)cc1	i	-4.4

Full records, looked up by structure. Values in the order: VCAM-1 rise	26S disassembly
O=C(CCCN1C(=O)CSc2ncccc21)N1CCN(Cc2ccccc2)CC1 is listed as /	-2.2
COCCn1c(=O)[nH]c2cc(C(=O)NCC3CCCO3)ccc2c1=O (stereo not given) is listed as /	4.0
O=C(NCc1ccccc1Cl)C1CCCN(S(=O)(=O)c2cnc[nH]2)C1 (stereo not given) is listed as /	-3.5
COc1ccc(-n2c(Cc3cc(=O)[nH]c(=O)[nH]3)nnc2SCc2ccccc2)cc1 is listed as /	0.5
OCCN1CCN(c2ncnc3ccc(Br)cc23)CC1 is listed as /	-1.1

Continued.
molecule	VCAM-1 rise	26S disassembly
Cc1nnc(SCc2cc(=O)[nH]c(N3CCCCC3)n2)s1	i	-0.1
N#Cc1ccccc1CSc1nc2ncc(Br)cc2[nH]1	/	3.7
COc1cccc(C(=O)Nc2ccc(C)cc2)c1	i	-0.9
FC(F)(F)c1ccc(N2CCOCC2)c(Nc2nc3ccccc3n3cnnc23)c1	/	0.9
O=C(Nc1ccc2c(c1)OCO2)C1CCCN(S(=O)(=O)c2cccs2)C1 (stereo not given)	/	0.1
COC(=O)c1ccccc1NS(=O)(=O)c1ccc2c3c(cccc13)C(=O)N2	/	-0.3
CCOC(=O)N1CCN(C(=O)c2cn(C)c3ccc(S(=O)(=O)N4CCCC4)cc3c2=O)CC1	/	-0.5
N#CCSc1nc2c(c(C3CC=CCC3)c1C#N)CCC2 (stereo not given)	i	1.5
CCOC(=O)CCCOC(=O)c1ccc(S(=O)(=O)N(C)C)cc1	i	1.2
COc1ccc(NC(=O)C2(N(CC(C)C)C(=O)Cn3nnnc3N)CCCCC2)cc1	/	-1.3
O=C(c1ccco1)N(Cc1cc2ccccc2[nH]c1=O)C1CCCCC1	i	1.1
CCOCCOC(=O)C1=C(C)Nc2ccc(C)cc2S1	/	1.5
Cc1cc(C)cc(Nc2cc(=O)n(C3CCCCC3)c(=O)[nH]2)c1	/	14.0
O=C(CCn1c(=O)c2ccccc2n(CC(=O)NCCC2=CCCCC2)c1=O)NCc1ccco1	i	0.6
O=C(NCc1ccco1)c1noc2c1CCCCC2	i	-1.0
CCOC(=O)N1CCC(NC(=O)c2csc3c2CCCC3)CC1	/	-2.4
CCCNC(=O)CS(=O)Cc1nc(-c2ccc(OC)cc2)oc1C (stereo not given)	/	-0.3
CCOC(=O)/C(C#N)=C1\Nc2ccccc2N=C1N(CC(C)C)CC(C)C	i	6.5
O=C(CSc1ccc2nnc(-c3cccc(F)c3)n2n1)NCc1ccco1	/	0.0
COC(=O)c1ccccc1NC(=O)c1cc(-c2cccs2)on1	/	0.8
Cc1ccccc1Cn1cc(NC(=O)c2noc3c2CC(C(C)(C)C)CC3)cn1 (stereo not given)	/	-0.7
CSc1ccc2nnc(-c3cccc(F)c3)n2n1	/	0.4
Cc1ccccc1Cn1nc(C)c(NC(=O)c2noc3c2CCc2ccccc2-3)c1C	i	-1.0
Cc1noc(C)c1S(=O)(=O)Nc1ccc(C(=O)NCCc2ccccc2)cc1	/	-2.7
CCOC(=O)COc1ccc(S(=O)(=O)N2CCc3ccccc3C2)cc1	i	-0.7
CCCCNC(=O)c1ccc(NC(=O)C2CCCO2)cc1 (stereo not given)	/	-0.6
O=C(CSc1nnc(Cn2c(=O)sc3ccccc32)n1CCc1ccccc1)N1CCOCC1	/	-0.3
CCN(CC)S(=O)(=O)c1ccc(C(=O)OCCN2C(=O)CCC2=O)cc1	/	0.6
Cc1ccc(C)c(NC(=O)C2CCC(C)(C(=O)O)C2(C)C)c1 (stereo not given)	i	-2.6
CCc1ccc(N(CC(=O)NC2CCCC2)S(=O)(=O)c2c(C)noc2C)cc1	i	0.7

(continued)
molecule	VCAM-1 rise	26S disassembly
CCOC(=O)c1ccc(NC(=O)CCNS(=O)(=O)c2ccc3c(c2)oc(=O)n3C)cc1	/	-1.2
COc1ccccc1-c1nc2n(n1)C(c1cccs1)C(C(=O)Nc1cccnc1)=C(C)N2 (stereo not given)	i	-0.9
COC(=O)c1cc(-c2ccccc2)sc1NC(=O)c1cc(C)on1	i	-1.8
CCOC(=O)N1CCN(C(=O)c2ccc(CS(=O)(=O)c3ccccc3OC)o2)CC1	/	-1.5
CCN(CC)C(=O)C1CCCN(c2ncnc3c2cnn3-c2ccc(Cl)cc2)C1 (stereo not given)	i	-0.1
COc1nc(Nc2ccc(O)cc2)nc(OC(C(F)(F)F)C(F)(F)F)n1	/	0.2
CCC1CCCCN1C(=O)CSc1nnc(-c2cccs2)o1 (stereo not given)	/	1.3
Cc1cc(N2CCC(N(C)C3CCCC3)CC2)nc2cc(O)ccc12	/	-5.6
O=C(NCCCN1CCN(Cc2ccccc2)CC1)C1CCN(c2nnc(-n3cccc3)s2)CC1	i	3.6
COC(=O)c1ccc(CN(c2ccccc2OC)S(=O)(=O)c2cccs2)o1	i	0.0
CCCSc1nnc(NC(=O)c2sc3nc(-c4cccs4)ccc3c2N)s1	/	4.2
CCOC(=O)C1CCN(c2c(N3CCCC(C(=O)OCC)C3)c(=O)c2=O)CC1 (stereo not given)	i	0.5
CS(=O)(=O)N(CC(=O)Nc1ccc2c(c1)OCCO2)Cc1ccccc1	i	-0.8
O=C(Cn1cccc1)N1CCc2ccccc21	/	2.5
Cc1ncoc1C(=O)Nc1ccccc1C(N)=O	i	-0.8
O=C1CC(c2cccc(Cl)c2)CC(O)=C1C=NCCCO (stereo not given)	i	-1.3
Cn1c(=NC(=O)CSCC(=O)N2CCOCC2)sc2ccccc21	/	1.1
COc1cccc(N2CCN(Cc3cccnc3)CC2)c1	i	3.0
COCCNC(=O)c1ccc(Cl)c(Cl)c1	i	-0.6
CC(C)C(CO)NC(=O)CC(=O)NC(CO)C(C)C (stereo not given)	i	0.1
CCOC(=O)c1[nH]c(C)c(CN(Cc2ccco2)C(=O)C(F)(F)F)c1C	/	1.3
CNCCC=C1c2ccccc2CCc2ccccc21	i	-0.8
COc1ccc(N2CCN(C(CNS(=O)(=O)c3cccs3)c3cccnc3)CC2)cc1 (stereo not given)	/	0.4
CC(=O)N(c1ccc(N(C(C)=O)S(=O)(=O)c2cccs2)cc1)S(=O)(=O)c1cccs1	i	1.5
Cc1ccc(-c2nnn(CC(=O)N(CC(=O)NCC3CCCO3)c3ccccc3)n2)o1 (stereo not given)	i	2.9
O=C1CC(c2ccc3c(c2)OCO3)C2=C(CCCC2=O)N1 (stereo not given)	/	0.3
O=C(Cn1cc2c(n1)CCCC2)NC1CCN(Cc2ccccc2)CC1	/	0.3
CCOc1ccccc1NC(=O)c1cnc2n(c1=O)CCS2	/	0.7
CCn1cc(C(=O)NCCCN2CCC(C)CC2)c2cc(OC)c(OC)cc2c1=O	/	0.6
CCCS(=O)(=O)N1CCC(C(=O)NCCc2ccc(C)cc2)CC1	/	0.0
Cc1ccc(S(=O)(=O)n2nc(OC(=O)C(C)(C)C)cc2N)cc1	/	-1.0
Cc1c[nH]c2cccc(OCC(O)CNC(C)(C)C)c12 (stereo not given)	i	-1.9
O=C(NCc1ccco1)C1(S(=O)(=O)c2ccc(Cl)cc2)CC1	i	1.2

An excerpt; count on the stated rates, not on these rows.
